From PubChem
Cruzain inh Det – qHTS Assay for Promiscuous and Specific Inhibitors of Cruzain (with detergent); Cruzipain (Trypanosoma cruzi), P25779; purified cruzain, Z-FR-AMC fluorescence, 0.01% Triton; Potency, µM, without a hit: max response, negative = inhibition, hits mostly inhibitors; AID 1478, 2009; 0.43% of 200,000 active; active = well fitted curve in the direction sought with a large enough effect; inconclusive = small, poorly fitted or top-dose-only effect, or another doubt; inactive = no such curve, though single readings can be large; an effect the other way counts as inactive or inconclusive;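 note: plate controls were neutral wells for no effect and buffer without enzyme for full effect; nearly all actives have a fitted effect of over 40% in size; top concentration of the series not given in the record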
Target sequence (P25779 123-467 limits assumed): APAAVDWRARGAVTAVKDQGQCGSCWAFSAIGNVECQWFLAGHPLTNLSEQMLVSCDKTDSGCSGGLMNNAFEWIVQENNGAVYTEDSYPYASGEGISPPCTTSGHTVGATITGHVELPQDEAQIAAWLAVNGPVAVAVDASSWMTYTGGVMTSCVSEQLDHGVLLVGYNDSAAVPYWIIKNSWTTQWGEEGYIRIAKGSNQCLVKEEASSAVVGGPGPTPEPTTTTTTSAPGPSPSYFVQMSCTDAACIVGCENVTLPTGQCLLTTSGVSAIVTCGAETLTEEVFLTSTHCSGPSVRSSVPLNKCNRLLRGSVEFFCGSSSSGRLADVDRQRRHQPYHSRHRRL
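15 min RT preincubation of 1.5 nM cruzain with compound, then 2 uM Z-FR-AMC added; kinetic AMC fluorescence, 60 s delta. Triton X-100 0.01%, pH 5.5.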
Cruzain inh noDet – qHTS Assay for Promiscuous and Specific Inhibitors of Cruzain (without detergent); purified cruzain, Z-FR-AMC fluorescence, no detergent; Potency, µM, inactives show max response, negative = inhibition, most hits filed as inhibitors; 2.3% of 200,000 active; Cruzipain (Trypanosoma cruzi), P25779; active = well fitted curve in the direction sought with a large enough effect; inconclusive = small, poorly fitted or top-dose-only effect, or another doubt; inactive = no such curve, though single readings can be large; an effect the other way counts as inactive or inconclusive;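 note: plate controls were enzyme without inhibitor for no effect and buffer without enzyme for full effect; nearly all actives have a fitted effect of over 40% in size; top concentration of the series not given in the record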
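Purified cruzain at 1.5 nM, pre-incubated 15 min with compound at room temperature in 100 mM sodium acetate pH 5.5, 5 mM DTT, 0.00005% Triton X-100. Reaction started with 2 uM Z-FR-AMC; AMC fluorescence increase over 60 s gives rate.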
Lassa entry inh – qHTS for Inhibitors of binding or entry into cells for Lassa Virus; Lassa virus pseudotype entry inhibition, cell reporter; control for the full effect not named in the record; Potency, µM (titrated, usually from 37.9 µM), for the others: at the top dose activity change, negative = inhibition, actives largely listed as inhibitors; 1.2% of 300,000 active; active means well fitted inhibition curve with a large enough effect; inconclusive means small, poorly fitted or top-dose-only effect, or effect the other way; inactive means flat fitted curve, though single readings scatter; tested in HEK293 cells; note: % is set by controls: 0 for no effect and ±100 for the full control effect; nearly all actives have a fitted effect of over 50% in size; luciferase read-out
SARS PLpro yeast – qHTS of Yeast-based Assay for SARS-CoV PLP; AID 485353, 2010; Potency, µM (series often up to 32.9 µM), for the others: top-dose activity, positive = growth rescue; S. cerevisiae expressing SARS-CoV PLpro, growth rescue; control for the full effect not named in the record; 0.19% of 330,000 active; note: 0% is about no effect; nearly all actives have a fitted effect of over 55% in size; growth read by luminescence after 48 h
NS1 function inh – qHTS Assay for Inhibitors of Influenza NS1 Protein Function. AID 2326, 2010. Potency, µM (series often up to 46.1 µM), for the others: at the highest dose activity, positive = more growth. S. cerevisiae slowed by influenza A NS1, growth recovery by OD600. 0.4% of 270,000 active; note: actives are rising curves; nearly all actives have a fitted effect of over 50% in size
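In this qHTS, NS1 from influenza A is expressed in budding yeast, where it slows growth. Cells are switched from glucose to 2% galactose medium (pH 6.0, -URA), treated with compound, and growth recovery is read at OD600.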
Marburg entry inh – qHTS for inhibitors of binding or entry into cells for Marburg Virus | Marburg virus pseudotyped entry inhibition, cell reporter; control for the full effect not named in the record; about a third of the inactives were read at about 46 µM | Potency, µM (doses to about 37.8 µM), for inactives: at the top dose activity change, negative = inhibition, actives largely listed as inhibitors | 1.8% of 300,000 active; active = well fitted inhibition curve with a large enough effect; inconclusive = small, poorly fitted or top-dose-only effect, or effect the other way; inactive = flat fitted curve, though single readings scatter; tested in HEK293 cells; about a fifth of its hits are not listed in these tables; note: % is set by controls: 0 for no effect and ±100 for the full control effect; luciferase read-out
2A StopGo – High Throughput Screening for Foot and Mouth Disease Virus Antivirals; human cells with a luciferase reporter of 2A StopGo recoding; control for the full effect not named in the record; AID 1159524, 2015; 1.2% of 410,000 active; Potency, µM (doses to about 57.9 µM), for the others: at the highest dose signal change, negative = less light; active = well fitted falling curve with a large enough effect; inconclusive = small, poorly fitted or top-dose-only effect; inactive = no such curve, though single readings can be large or run the other way; tested in HEK293T cells; note: % is set by controls: 0 for no effect and ±100 for the full control effect; nearly all actives have a fitted effect of over 45% in size; luciferase light after 4 h
RE007 growth inh – qHTS Assay for Inhibitors of the HIV-1 protein Vpr; S. pombe RE007 Vpr strain, BacTiter-Glo ATP luminescence, 24 h; control for the full effect not named in the record; 0.21% of 360,000 active; Potency, µM (series often up to 92.2 µM), without a hit: top-dose activity change, negative = less growth; active = well fitted falling curve with a large enough effect; inconclusive = small, poorly fitted or top-dose-only effect; inactive = no such curve, though single readings can be large or run the other way;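 note: % is set by controls: 0 for no effect and ±100 for the full control effect; nearly all actives have a fitted effect of over 50% in size; the assay follows cell death caused by Vpr and the record does not say whether a fall means rescue or toxicity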
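Fission yeast strain RE007, carrying one chromosomally integrated HIV-1 vpr copy, was seeded at OD 0.01 in PMG+AL medium with 23 nL pinned compound. After 24 h at 30 °C and 99% humidity, viability was read by BacTiter-Glo luminescence.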
Active calls of the source: *; & = joins results of further samples; [ ] = dose if it differs, or a comment. Unless noted, calls come from the whole dose curve; as a rule, active means well fitted rising curve with a large enough effect; inconclusive means small, poorly fitted or top-dose-only effect; inactive means no such curve, though single readings can be large or run the other way. Potency is the fitted concentration of half-maximal effect.

Screening O=C(Nc1cccc(F)c1)NC1CCN(Cc2ccccc2)CC1 returned SARS PLpro yeast 0%, NS1 function inh -3%, 2A StopGo -7% and RE007 growth inh 4%.
For COc1cccc(CNS(=O)(=O)c2ccc3[nH]c4c(c3c2)CCCCC4)c1 the results were Cruzain inh Det -14%, Cruzain inh noDet -25%, Lassa entry inh 11%[46.1 µM] and 2A StopGo -11%.
For O=C(Nc1ccccc1Cl)c1ccc(C(=O)Nc2ccccc2Cl)cc1 the results were Lassa entry inh 15%[46.1 µM], Marburg entry inh 8%, 2A StopGo -8% and RE007 growth inh 6%.
COc1ccc(/C=C(\C#N)C(=O)Nc2cc(S(=O)(=O)N3CCOCC3)ccc2N2CCCC2)cc1 was read as Cruzain inh Det -17%, Cruzain inh noDet inconclusive, Lassa entry inh -14%, SARS PLpro yeast 1%, NS1 function inh inconclusive, Marburg entry inh 3%[46.1 µM], 2A StopGo 6% and RE007 growth inh -12%.
`O=C(NC(=O)N1CCN(c2cccc(Cl)c2)CC1)c1ccccc1` gave Cruzain inh Det 0.7%, Cruzain inh noDet -8%, Lassa entry inh inconclusive, SARS PLpro yeast -6%, NS1 function inh inconclusive, Marburg entry inh -8%, 2A StopGo -17% and RE007 growth inh -9%.
For CCN(C(=O)CN1c2ccccc2CC1C)c1c(N)n(Cc2ccccc2)c(=O)[nH]c1=O (stereo unspecified) the results were Lassa entry inh -1%[46.1 µM], SARS PLpro yeast -4%, Marburg entry inh inconclusive, 2A StopGo -12% and RE007 growth inh 1%.
`COc1ccc(-c2nc3ccccc3n2Cc2ccccc2)cc1` gave Cruzain inh Det -9.2%&-2.7%, Cruzain inh noDet 0%&2%, Lassa entry inh -14%[46.1 µM], SARS PLpro yeast -21%, NS1 function inh -16%, Marburg entry inh 3%[46.1 µM], 2A StopGo -25%&-18% and RE007 growth inh 2%.
For CCN(CC)CCNC(=O)c1cc2c(=O)n(C)c3cc(Cl)ccc3c2s1 the results were Cruzain inh Det -3.0%, Cruzain inh noDet 10%, Lassa entry inh 5%[46.1 µM], Marburg entry inh 21%[46.1 µM] and 2A StopGo 1%.
COc1ccc(NC(=O)c2ccc3c(c2)n(C)c(=O)n3C)cc1 was read as Cruzain inh Det 2.4%, Cruzain inh noDet 6%, Lassa entry inh -12%, SARS PLpro yeast 21%, NS1 function inh -13%, Marburg entry inh 10%, 2A StopGo 33%[activator] and RE007 growth inh 3%.
O=C(O)Cn1cc(/C=C2/SC(=O)N(CC(=O)N3CCCCCC3)C2=O)c2ccccc21 was read as Lassa entry inh 6%, SARS PLpro yeast 4%, Marburg entry inh inconclusive, 2A StopGo 1% and RE007 growth inh -11%.
For COc1ccc(NC(=O)CSc2nnnn2C2CCCC2)cc1 the results were Lassa entry inh 8%, SARS PLpro yeast -1%, NS1 function inh 2%, Marburg entry inh 7%, 2A StopGo 24% and RE007 growth inh 2%.
For CCOC(=O)c1c(NC(=O)c2ccc(S(=O)(=O)N3CCOCC3)cc2)sc2c1CCN(C(C)C)C2 the results were SARS PLpro yeast -4%, NS1 function inh 14%, 2A StopGo -3% and RE007 growth inh 10%.
`O=C(Nc1cccc(S(=O)(=O)N2CCOCC2)c1)c1cn(-c2ccccc2)nc1-c1ccc(F)cc1` gave Cruzain inh Det -2.1%, Cruzain inh noDet -13%, Lassa entry inh -11%, SARS PLpro yeast 1%, NS1 function inh 13%, Marburg entry inh inconclusive, 2A StopGo 10% and RE007 growth inh 19%.
For Cc1c(NC(=O)C(=O)/C=C(\O)c2ccc(Cl)cc2)c(=O)n(-c2ccccc2)n1C the results were Cruzain inh Det -8.7%, Cruzain inh noDet inconclusive, Lassa entry inh -24%, SARS PLpro yeast -17%, NS1 function inh 15%, Marburg entry inh inconclusive, 2A StopGo -19% and RE007 growth inh -11%.
For Cc1sc2ncnc(N3CCN(Cc4ccccc4)CC3)c2c1-c1ccc(F)cc1 the results were Lassa entry inh 3%, SARS PLpro yeast -4%, NS1 function inh 2%, Marburg entry inh 6%[46.1 µM], 2A StopGo inconclusive and RE007 growth inh 11%.
For COc1cccc(OC)c1C(=O)NC(=S)Nc1cc(-c2nc3ccccc3[nH]2)ccc1Cl the results were Cruzain inh Det -9.4%, Cruzain inh noDet inconclusive, Lassa entry inh -16%, SARS PLpro yeast -38%, NS1 function inh 16%, Marburg entry inh -24%, 2A StopGo -7% and RE007 growth inh 4%.
For O=C(NCCOc1ccccc1)C1CCC(=O)N(CCc2ccc(Cl)cc2)C1 (stereo unspecified) the results were Lassa entry inh -4%, SARS PLpro yeast 2%, NS1 function inh -11%, Marburg entry inh inconclusive, 2A StopGo 15% and RE007 growth inh 2%.
Screening Cc1cc(NC(=O)c2ccco2)cc(-c2nc3ccccc3o2)c1O returned Cruzain inh Det -0.1%, Cruzain inh noDet -5%, Lassa entry inh 14%[46.1 µM], Marburg entry inh 10%[46.1 µM] and 2A StopGo -14%.
Cc1nc2nc(NC(=O)c3ccc(F)cc3)[nH]n2c(=O)c1Cc1ccccc1 was read as Cruzain inh Det 4.3%, Cruzain inh noDet inconclusive, Lassa entry inh 2%[46.1 µM], Marburg entry inh 4%[46.1 µM] and 2A StopGo -8%.
`COc1cc([N+](=O)[O-])ccc1Nc1nc(C)cc(C)n1` gave SARS PLpro yeast -2%, NS1 function inh 4%, Marburg entry inh -17%[46.1 µM], 2A StopGo 1% and RE007 growth inh -18%.
Cn1c2ccccc2c2cc(/C=N/NC(=O)c3ccccc3F)ccc21 was read as SARS PLpro yeast -9%, NS1 function inh -38%, 2A StopGo -6% and RE007 growth inh -18%.
`CCC(=O)Nc1ccc2nc(SCC(=O)N3CCOCC3)sc2c1` gave Lassa entry inh 4%, SARS PLpro yeast 1%, Marburg entry inh 18%[46.1 µM], 2A StopGo 7% and RE007 growth inh 19%.
For CNCC(O)CN(c1ccccc1)c1ccccc1 (stereo unspecified) the results were Lassa entry inh 10%, SARS PLpro yeast -2%, NS1 function inh 0%, Marburg entry inh inconclusive, 2A StopGo 60%[activator] and RE007 growth inh -18%.
Cc1cc(C)n(-c2ccc(NC(=O)C3CCCCN3C(=O)c3cc(C)oc3C)cc2)n1 (stereo unspecified) was read as SARS PLpro yeast -1%, NS1 function inh -9%, 2A StopGo -17% and RE007 growth inh 23%.
`CCOC(=O)N1CCN(C(=O)C(=O)NNC(=O)COc2ccc(Cl)cc2)CC1` gave Cruzain inh Det -1.3%, Cruzain inh noDet -1%, Lassa entry inh -12%, SARS PLpro yeast 12%, NS1 function inh 6%, Marburg entry inh -2%[46.1 µM], 2A StopGo 7% and RE007 growth inh -1%.
Cc1ccc2c(=O)cc(C(=O)NC3CCS(=O)(=O)C3)oc2c1 (stereo unspecified) was read as SARS PLpro yeast 15%, NS1 function inh 7%, 2A StopGo -6% and RE007 growth inh -21%.
Cc1sc2nc(CSCC(=O)NC(C)(C)C)[nH]c(=O)c2c1C was read as SARS PLpro yeast -2%, NS1 function inh 9%, 2A StopGo -3% and RE007 growth inh -6%.
Screening COc1cc(-c2cc(C(=O)OCC(=O)Nc3ccc4c(c3)OCO4)c3ccccc3n2)cc(OC)c1OC returned Cruzain inh Det -9.9%, Cruzain inh noDet inconclusive, Lassa entry inh 0%, SARS PLpro yeast 1%, NS1 function inh 10%, Marburg entry inh -1%, 2A StopGo -10% and RE007 growth inh 4%.
For NC(=O)[C@@H]1CCCN1Cc1c(C(=O)N2CCc3ccccc3C2)nc2ccc(Cl)cn12 the results were Lassa entry inh -5%[46.1 µM], SARS PLpro yeast -2%, NS1 function inh 8%, Marburg entry inh 14%[46.1 µM], 2A StopGo 1% and RE007 growth inh 3%.
`COc1ccc(C(=O)Nc2ccccc2-c2nc3ccccc3s2)cc1OC` gave Cruzain inh Det 2.8%, Cruzain inh noDet 11%, Lassa entry inh 3%[46.1 µM], Marburg entry inh 0%[46.1 µM] and 2A StopGo 0%.
For CCOC(=O)N1CCN(C(=O)c2cc3ccccc3o2)CC1 the results were Lassa entry inh inconclusive, SARS PLpro yeast 25%, NS1 function inh 3%, Marburg entry inh -7%, 2A StopGo -8% and RE007 growth inh 14%.
For COc1cc2c(c3oc(-c4ccccc4)cc(=O)c13)C=CC(C)(C)O2 the results were SARS PLpro yeast -1%, NS1 function inh 2%, 2A StopGo inconclusive and RE007 growth inh -7%.
For CCN(CC(=O)Nc1c(F)cccc1F)C(=O)C1CCN(S(=O)(=O)c2ccc(C)cc2C)CC1 the results were Lassa entry inh 0%, SARS PLpro yeast 2%, Marburg entry inh 2%[46.1 µM], 2A StopGo -22% and RE007 growth inh -3%.
Screening COc1nnc(-c2ccc(N3CCOCC3)c(NC(=O)c3ccc(C)cc3)c2)c2ccccc12 returned Cruzain inh Det -4.8%, Cruzain inh noDet inconclusive, Lassa entry inh 0%, SARS PLpro yeast -4%, NS1 function inh 19%, Marburg entry inh inconclusive, 2A StopGo inconclusive and RE007 growth inh -2%.
Screening CC(C)(C)c1ccc(C(=O)Nc2ccccc2C(=O)OCc2cc(=O)n3ccsc3n2)cc1 returned Cruzain inh Det 1.4%, Cruzain inh noDet -8%, Lassa entry inh 32%[46.1 µM] and 2A StopGo 38%[activator].
COc1cccc(CCNC(=O)c2cnc3sc(N4CCCCCC4)nn3c2=O)c1 was read as Cruzain inh Det -0.6%, Cruzain inh noDet 14%, Marburg entry inh -10%[46.1 µM] and 2A StopGo inconclusive.
Screening COc1ccc(Cl)cc1NC(=O)Cn1ccn(-c2cc(C)cc(C)c2)c(=O)c1=O returned Cruzain inh Det -3.0%, Cruzain inh noDet 3%, Lassa entry inh 6%[46.1 µM] and 2A StopGo 0%.
Screening CCOC(=O)CN(C(=O)Cn1nnc2ccccc21)C(C(=O)NCCOC)c1ccccc1C (stereo unspecified) returned Cruzain inh Det 1.2%, Cruzain inh noDet -10%, Lassa entry inh inconclusive, SARS PLpro yeast 5%, NS1 function inh 2%, Marburg entry inh -3%&16%, 2A StopGo 42%[activator] and RE007 growth inh 2%.
For O=C(COc1cccc(Cl)c1)Nc1cc(S(=O)(=O)N2CCOCC2)ccc1N1CCOCC1 the results were SARS PLpro yeast 3%, NS1 function inh 5%, 2A StopGo -24% and RE007 growth inh -3%.
For Cc1cc(N2CCN(c3nnnn3-c3ccccc3)CC2)n2ncnc2n1 the results were Cruzain inh Det -1.1%, Cruzain inh noDet 4%, Lassa entry inh 1%, SARS PLpro yeast -2%, NS1 function inh 5%, Marburg entry inh 15%, 2A StopGo -13% and RE007 growth inh -9%.
